Autofluor counter: compound fluorescence in toxin protease inhibitor counterscreen; compound autofluorescence counterscreen, microsphere flow cytometry; hits give high values; fluorescence intensity (no concentration beside the values); hit rate 3.1% among 360,000; AID 624483;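 active = at least 3 SD above the mean of all compounds, about 16000 in these data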;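 note: 100 nL of 1 mM stock went into each well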
RN4220 kill: growth inhibition of S. aureus RN4220, primary screen, OD600; hit rate 0.33% among 330,000; 16 h; inhibition, % (no concentration beside the values);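 active = z-score of -3 or lower and OD600 up to 0.18 on both plates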;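 note: plate controls were untreated cells for no effect and reference antibiotic for full effect; stock transfer was 100 nL into about 80 µL; one replicate is shown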
Sa ugtP lethal: growth inhibition of ugtP-null S. aureus, primary screen, RN4220 ugtP deletion, OD600 | growth inhibition, % (no concentration beside the values) | 16 h; some inactives read as strong as hits | hit rate 0.54% among 330,000 | AID 1259309, 2017;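 active = z-score under -3 and OD600 up to 0.15 on both plates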;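 note: plate controls were untreated wells for no effect and antibiotic for full effect; wells of about 80 µL received 100 nL stock; the first replicate is given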
PrP 5UTR inh: inhibition of PrP 5' UTR reporter expression | inhibition, % (concentration not given with the values) | cell-based PrP 5' UTR mRNA reporter, plate reader | hit rate 0.35% among 340,000;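 active = every replicate at 50% or more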;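 note: 0 = median of the neutral control wells; tested in H4 reporter cells; numbers are from one replicate; inactives centre near -14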
Mtb hypoxia rep: PubChem AID 1159583; fluorescence inhibition, % (test concentration not listed); hit rate 0.1% among 300,000; M. tuberculosis hypoxia-regulated fluorescent reporter, fluorescence;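 active = 35 to 45% if threefold the growth effect, above 45% if 1.5-fold the growth effect; inactive = the rest, general growth blockers included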;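 note: wells of about 50 µL received 100 nL stock; 0% = vehicle wells and 100% = reference inhibitor wells; whole bacteria with a GFP reporter of the hypoxia response; strong numbers were not always called active; many hits fall short of the cut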
BJeLR viability: MLPCN primary cell-based screen for lethality selective to Ras in HRASV12 cells. hit rate 0.17% among 300,000. BJeLR (HRASV12) viability, CellTiter-Glo ATP luminescence, 48 h; reference of the scale not given here. inhibition, % (concentration not given with the values);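 active = replicate mean above 50%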;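 note: 50 nL library stock added to about 25 µL; numbers are from one replicate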
Mtb hypoxia rep growth: recorded beside Mtb hypoxia rep, whose call it bears; growth inhibition, %; measured here: M. tuberculosis growth (absorbance);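 0% = vehicle and 100% = reference antibiotic; read after six days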
* = called active by the depositor; nt = no result given.

Values run as follows: Sa ugtP lethal	Autofluor counter	Mtb hypoxia rep growth	RN4220 kill	BJeLR viability	PrP 5UTR inh	Mtb hypoxia rep
- Cc1cc(-c2ccc(Cl)cc2)n2nc(N)nc2n1
→ -11	3563	nt	1.2	10	-10	nt
- COc1ccc(OC)c2c1nc1n2CCS1
→ 5	2203	13	1.5	2	-23	12
- CC(C)(C)n1nnnc1C(c1cccs1)N(Cc1ccccc1)Cc1cccnc1 (stereo not drawn)
→ 2	2719	2	7.9	2	2	3
- Cn1c(SCc2ccccc2)nnc1-c1ccc2nonc2c1
→ 2	3485	0	2.6	-1	-15	10
- COC(=O)c1sccc1NC(=O)C1CC(C)=C(C)CC1C(=O)O (stereo not drawn)
→ 4	5364	2	8.3	0	-23	3
- CC(O)(CS(=O)(=O)c1ccccc1)C(=O)Nc1ccc(C(F)(F)F)cc1 (stereo not drawn)
→ -8	10999	7	1.4	11	4	-6
- COC(=O)c1cc(-c2ccc(Cl)cc2Cl)n[nH]1
→ 6	2670	11	2.9	6	-36	4
- CN(Cc1ccccn1)C(=O)C1CCC(=O)N(Cc2cccc(C(F)(F)F)c2)C1 (stereo not drawn)
→ 11	4287	-5	0.1	4	-9	4
- Cc1sc2ncn(CC(=O)OC(C)C(=O)NC(C)(C)C)c(=O)c2c1C (stereo not drawn)
→ 2	4150	nt	2.9	-2	-22	nt
- COc1ccccc1NC(=O)N1CCN(c2ncccn2)CC1
→ 1	2852	6	8.1	2	-31	4
- Cc1nc(C)c(Cc2ccccc2Cl)c(=O)[nH]1
→ 3	2464	3	2.8	8	-31	4
- C=CCN(C(=O)c1csnn1)C(C(=O)NCc1ccc(F)cc1)c1ccccc1 (stereo not drawn)
→ -2	5938	-3	2.0	-11	-12	3
- CCCC1C(=O)N(c2ccccc2)C1c1ccccc1 (stereo not drawn)
→ 7	2488	3	2.0	-2	10	11
- N/C(=N\OC(=O)c1cnn(-c2ccccc2)c1C(F)(F)F)c1ccc(C(F)(F)F)cc1
→ 10	5711	7	3.6	-6	-29	21
- O=C(NCCCN1CCOCC1)c1cccc(S(=O)(=O)N2CCc3ccccc3C2)c1
→ 4	3110	9	10	-17	-25	11
- CCS(=O)(=O)c1nc(S(=O)(=O)c2ccc(C)cc2)c(NCCCN2CCOCC2)s1
→ -5	5331	12	1.0	0	-22	5
- O=C(c1ccc(N2CCN(S(=O)(=O)c3ccccc3)CC2)c([N+](=O)[O-])c1)N1CCOCC1
→ 6	2478	1	6.3	1	-11	18
- Oc1ccccc1-c1nc(NCc2cccnc2)c2ccccc2n1
→ -13	4751	1	-8.4	-10	-14	3
- CCCCCc1nnc(NC(=O)C2COc3ccccc3O2)s1 (stereo not drawn)
→ -10	4515	7	1.9	-27	-9	-9
- O=C(c1ccc2ccccc2c1)C1CCCN(C(=O)c2cnccn2)C1 (stereo not drawn)
→ 4	4406	7	4.7	-8	-25	15
- CC1=CN2C(=N)/C(=C/c3ccc(Sc4ccc(C)cc4)o3)C(=O)N=C2S1
→ -23	2618	-1	-5.5	-2	-22	-9
- O=S(=O)(NCCc1ccc(F)cc1)c1ccc(F)cc1Br
→ -7	3601	11	-2.1	nt	-18	13
- O=C(CCN=C1NS(=O)(=O)c2ccccc21)OCc1cccc(Cl)c1
→ 22	4723	1	-0.8	7	2	-1
- CCCC1Cc2ccccc2N1C(C)=O (stereo not drawn)
→ 1	nt	6	3.4	nt	nt	0
- COc1cccc(-c2nc(-c3ccc(NC(=O)Cc4ccccc4OC)cc3)no2)c1
→ 20	2236	nt	-2.3	nt	-6	nt
- Cn1c(=O)c2c(nc(CN3CCN(C(=O)c4ccco4)CC3)n2Cc2ccc(F)cc2)n(C)c1=O
→ 9	7688	6	5.1	11	1	16
- CCCc1nn2c(=O)cc(COc3ccc(NC(=O)c4ccco4)cc3)nc2s1
→ -4	4983	2	2.2	-6	-27	8
- CCN1CCc2c(sc(NC(=O)c3ccc(S(=O)(=O)N4CCOCC4)cc3)c2C(=O)OC)C1
→ -4	4582	6	3.9	0	-4	-1
- COc1ccc(-c2csc(NC(=O)CSCc3c(C)noc3C)n2)c(OC)c1
→ -5	4847	4	2.0	4	-12	4
- Cc1cc(Cl)ccc1NC(=O)COC(=O)CCNS(=O)(=O)c1ccccc1
→ 8	5923	2	9.3	nt	-18	10

2 of these compounds in another layout:
smiles	Sa ugtP lethal	Autofluor counter	Mtb hypoxia rep growth	RN4220 kill	BJeLR viability	PrP 5UTR inh	Mtb hypoxia rep
COc1cccc(-c2nc(-c3ccc(NC(=O)Cc4ccccc4OC)cc3)no2)c1	20	2236	nt	-2.3	nt	-6	nt
Cn1c(=O)c2c(nc(CN3CCN(C(=O)c4ccco4)CC3)n2Cc2ccc(F)cc2)n(C)c1=O	9	7688	6	5.1	11	1	16

More records:
Values run as follows: Sa ugtP lethal	Autofluor counter	Mtb hypoxia rep growth	RN4220 kill	BJeLR viability	PrP 5UTR inh	Mtb hypoxia rep
- CCN(CC)S(=O)(=O)c1cccc(NC(=O)c2ccccc2Br)c1
→ 10	5055	1	5.7	1	-17	6
- CC(C)CN(C(=O)C1CCCO1)c1c(N)n(CC(C)C)c(=O)[nH]c1=O (stereo not drawn)
→ 3	4786	1	4.0	nt	0	-11
- N#Cc1ccccc1CSc1nnc(-c2ccncc2)o1
→ 0	3060	2	-6.3	-3	-43	-4
- O=C(NN1C(=O)/C(=C/c2cccs2)SC1=S)c1cccnc1
→ 6	5764	-2	5.7	-5	nt	1
- O=[N+]([O-])c1ccc(Cl)c(S(=O)(=O)N=C(c2ccccc2)N2CCOCC2)c1
→ 1	nt	1	9.3	nt	nt	5
- Cc1cccc(C)c1NC(=O)CN(C)c1ccc(C(F)(F)F)cn1
→ 10	2536	2	-1.2	-2	-14	2
- C/C(=N\NC(=O)c1ccc([N+](=O)[O-])cc1)c1cccc([N+](=O)[O-])c1
→ nt	3495	nt	nt	-4	-3	nt
- Cc1ccccc1OCc1nc2ccccc2c(=O)n1/N=C/c1c[nH]c2ccccc12
→ nt	9081	nt	nt	-12	-71	nt
- CCc1c(O)nc(SCC(=O)Nc2ccccc2OC)[nH]c1=O
→ 0	11260	3	5.0	0	14	1
- CCOc1cccc(/C=C/c2ccc3ccccc3n2)c1OC(C)=O
→ 24	4278	1	0.0	-4	-2	5
- CC(C)CCC1(C)NC(=O)N(CC(=O)Nc2ccc3c(c2)OCCO3)C1=O (stereo not drawn)
→ -2	3427	12	1.6	nt	-4	1
- COC(=O)Cc1ccc(NC(=O)c2ccc3c(c2)C(=O)N(Cc2cccnc2)C3=O)cc1
→ -2	4396	-3	-1.0	-10	4	-13
- Cc1c(C)c(C)c(C(=O)CCc2cccc(NC(=O)CCC(=O)O)c2)c(C)c1C
→ 1	3238	4	4.6	-7	-18	12
- CCOc1cc2[nH]c(=S)n(Cc3ccc(C(=O)NCCCOC)cc3)c(=O)c2cc1OCC
→ -11	3699	11	3.5	-8	-5	2
- Cn1nnnc1SCC(=O)Nc1ccccc1C(N)=O
→ 5	4515	-2	3.2	3	-24	0
- COc1cccc(NC(=O)COc2ccc(C(=S)N3CCN(C)CC3)cc2OC)c1
→ -2	5637	11	0.6	3	-14	6
- COc1ccc(S(=O)(=O)NC(CC(=O)NCc2ccc3c(c2)OCO3)c2ccco2)cc1 (stereo not drawn)
→ -1	2597	nt	-1.6	1	-9	nt
- Nc1nc(N)c(N=Nc2ccc(C(=O)O)cc2)c(N)n1
→ 6	3528	0	2.8	-1	-1	8
- CCCC(=O)O/N=C(\c1ccccc1)c1ccncc1
→ nt	4570	nt	nt	-6	-2	nt
- C=CCC(O)(CC=C)CNC(=O)c1ccc(OC)c(OC2CCN(C(C)=O)CC2)c1
→ 5	3928	4	1.1	-8	-29	-8
- CCOC(=O)c1ccc(NC(=O)N2CC(C)OC(C)C2)cc1 (stereo not drawn)
→ -4	10890	9	1.6	1	nt	4
- CCC(=O)N1CCc2cc(S(=O)(=O)CCC(=O)N3CCc4ccccc4C3)ccc21
→ 3	3658	-3	4.3	-2	-7	5
- Cc1nc(Cl)c(C(=O)NCCc2ccccc2)c(C)c1[N+](=O)[O-]
→ 6	4013	3	8.9	2	-28	10
- O=C(NC1CCCc2c1cnn2-c1ccccc1F)c1ccccn1 (stereo not drawn)
→ 1	nt	9	1.3	20	16	17
- CCCCCOC(=O)c1ccc(NC(=O)c2ccco2)cc1
→ nt	10498	nt	nt	-1	-18	nt
- Cc1c(C=NNC(=O)CNc2ccccc2)c2ccccn2c1C(=O)c1ccccc1
→ -20	nt	3	4.4	nt	nt	-8
- C=C(c1cccc2ccccc12)P(=O)(O)O
→ 6	2244	nt	6.8	0	-6	nt
- COc1cccc(NC(=S)N(CCCN2CCCC2)Cc2cccn2Cc2ccc(Cl)cc2)c1
→ 7	4745	2	-1.4	9	-13	14
- Cc1cc(N2CCOCC2)nc(SCC(=O)OCc2ccccc2)n1
→ 6	3367	1	7.2	-5	-3	-5
- CCc1ccc(C(C)NC(=O)C2CCCO2)cc1 (stereo not drawn)
→ 3	3727	nt	1.2	6	7	nt
- CCn1c(SCC(=O)NC2CCCCC2)nnc1-c1cc2cccc(OC)c2o1
→ 3	4559	nt	-3.0	1	2	nt
- Cc1ccnc(NC(=O)COC(=O)C23CC4CC(CC(C4)C2)C3)n1
→ 6	4686	5	3.8	-8	-22	14
- CC(C)(C)c1[nH]nc2c1C(c1ccco1)C(C#N)=C(N)O2 (stereo not drawn)
→ 19	2350	6	0.8	-6	9	6
- COc1ccc(CNC(=O)c2ccc(N3CCC4(CC3)CC(c3ccc(Cl)cc3)=NO4)c(NC(=O)Cc3ccc(F)cc3)c2)cc1
→ 2	3308	4	3.8	nt	-7	1
- COc1ccc(OC)c(NC(=O)CSc2nncc3ccc(OC)c(OC)c23)c1
→ 1	5331	5	2.0	2	-41	-6
- Cc1c(Br)c([N+](=O)[O-])nn1CC(=O)Nc1ccc(Cc2ccncc2)cc1
→ 9	2013	10	0.3	-7	-16	0
- Cc1ccc(C(=O)OCCc2c(C)[nH]n(-c3ccccc3)c2=O)cc1
→ 6	4463	-4	5.8	5	-17	2
- COc1cccc(CC(=O)N2CCN(c3ccccc3[N+](=O)[O-])CC2)c1
→ 5	5069	4	4.8	-2	-19	9
- CNC(=O)/C(C#N)=C/c1c(N2CCN(C)CC2)nc2c(C)cccn2c1=O
→ -1	2880	-1	-2.5	-2	-10	2
- CN1CCN(S(=O)(=O)c2cccc(C(=O)NC3CCCc4ccccc43)c2)CC1 (stereo not drawn)
→ 2	4570	nt	0.5	5	-8	nt
- Cc1ccc(NC(=O)CN2CCc3ccccc3C2)cc1
→ -5	10421	9	5.6	3	-11	10
- C=CCN1C(=O)CN=C1Nc1cc(C)ccc1C
→ 2	4132	0	-1.0	0	-2	3
- Cc1cccc(NC(=O)CSc2nnc(CNC(=O)c3ccc(S(=O)(=O)N(C)C)cc3)n2-c2ccccc2)c1
→ 2	2310	6	2.0	4	-14	1
- N#CCCn1cc(C(=O)Nc2cccc(C(=O)O)c2)c(-c2ccc(Cl)cc2)n1
→ 4	3126	3	3.7	-3	1	-2
- COC(=O)c1cccc(Cn2c(Cl)c(/C=N/NC(=O)c3ccco3)sc2=O)c1
→ nt	4377	nt	nt	3	-17	nt
- Cc1cc2oc(=O)c3c(c2cc1OCc1nn[nH]n1)CCCC3
→ 12	4546	10	6.2	8	-11	3
- COC(=O)c1c(-c2ccc(C)cc2)csc1NC(=O)Cc1ccc(OC)c(OC)c1
→ 2	2972	nt	-4.3	2	-10	nt
- Cc1cc(S(=O)(=O)Nc2ccc(C(=O)NCC(C)(C)N3CCOCC3)cc2)ccc1F
→ 7	4513	6	3.8	5	-19	6
- CCOC(=O)C1CN(Cc2ccccc2)C(=O)C1=O (stereo not drawn)
→ -6	4158	4	4.5	nt	-38	7
- Cc1[nH]cnc1C(=O)N/N=C/c1c(Cl)cccc1Cl
→ nt	2763	nt	nt	15	-5	nt
- O=C(/C=C/c1ccc(Cl)cc1)N(Cc1ccccc1)C1CCS(=O)(=O)C1 (stereo not drawn)
→ 0	2206	-12	0.8	-6	-11	9
- O=C(NN=Cc1ccc(COc2ccc(Br)cc2)o1)c1ccc2c(c1)OCO2
→ -10	nt	9	1.8	nt	nt	-2
- COCC[N+]1(C)CCCCC1
→ 0	4401	7	5.0	5	-13	0
- Cc1ccc(S(=O)(=O)Nc2cc(C)cn(Cc3ccc(F)cc3)c2=O)cc1
→ -2	3794	-1	-1.1	-10	-16	0
- COC(=O)c1ccc2c(c1C(=O)OC)CN(S(=O)(=O)C(C)(C)C)[C@H]2CCO
→ -2	4104	8	2.9	nt	-17	-7

Assay outcomes as filed in PubChem BioAssay.
